Compound activity: PubChem, National Center for Advancing Translational Sciences (NCATS)
Rango complex inh – qHTS Assay for Inhibitors of Rango (Ran-regulated importin-beta cargo) - Importin beta complex formation. Importin subunit beta-1 (Homo sapiens), Q14974. Rango CFP/YFP FRET sensor + importin beta, 45 min. Potency, µM (highest dose often 92.2 µM), for inactives: top-dose inhibition of complex formation. 0.031% of 340,000 active; active = rising FRET ratio curve, often small or poorly fitted; inconclusive = mostly compound fluorescence or quenching in the first reads; inactive = flat curves in all reads;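 further: potency means the concentration at half of the fitted maximal effect; 0% = DMSO wells and 100% = buffer wells lacking importin beta; nearly all actives have a fitted effect of over 15% in size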
Target sequence (Q14974 whole entry, looked up): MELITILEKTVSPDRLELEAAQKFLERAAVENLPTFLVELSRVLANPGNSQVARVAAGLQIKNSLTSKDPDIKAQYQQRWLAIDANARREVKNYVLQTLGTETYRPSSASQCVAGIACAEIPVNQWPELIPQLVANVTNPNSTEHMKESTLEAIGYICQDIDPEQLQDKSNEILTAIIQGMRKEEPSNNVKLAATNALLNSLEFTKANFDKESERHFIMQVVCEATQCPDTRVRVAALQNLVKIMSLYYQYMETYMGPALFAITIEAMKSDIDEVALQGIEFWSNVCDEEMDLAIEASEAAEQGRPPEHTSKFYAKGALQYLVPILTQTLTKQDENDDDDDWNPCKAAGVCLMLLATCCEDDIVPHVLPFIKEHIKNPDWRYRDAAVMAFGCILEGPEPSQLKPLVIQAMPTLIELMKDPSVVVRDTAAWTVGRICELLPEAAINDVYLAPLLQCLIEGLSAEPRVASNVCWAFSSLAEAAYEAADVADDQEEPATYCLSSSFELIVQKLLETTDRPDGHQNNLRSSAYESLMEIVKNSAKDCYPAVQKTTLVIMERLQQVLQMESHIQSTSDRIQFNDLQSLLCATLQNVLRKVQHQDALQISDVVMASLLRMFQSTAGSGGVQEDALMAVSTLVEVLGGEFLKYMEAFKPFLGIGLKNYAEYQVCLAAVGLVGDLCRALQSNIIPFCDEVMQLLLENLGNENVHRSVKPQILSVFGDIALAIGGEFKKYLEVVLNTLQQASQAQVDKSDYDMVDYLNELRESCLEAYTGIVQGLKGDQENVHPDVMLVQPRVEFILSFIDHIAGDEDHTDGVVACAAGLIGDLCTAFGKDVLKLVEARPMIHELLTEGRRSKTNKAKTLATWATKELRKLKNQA
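FRET biosensor (snurportin 1 IBB flanked by EYFP and cerulean), 50 nM, with compound 5 min, then 0.125 microM importin beta in PBS, 1 mM DTT, 0.02% Tween-20, 0.1% BSA. CFP/YFP ratio read after 45 min at room temperature; pre-read flags interference.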
GLA inh pH 4.5 – qHTS Assay for Inhibitors of Human alpha-Galactosidase at pH 4.5; Alpha-galactosidase A (Homo sapiens), P06280; activity change, negative = inhibition, % at 105 µM; 230,000 tested, under 10 active; purified enzyme, 4-MU-alpha-Gal fluorescence, pH 4.5; AID 1467, 2008; inconclusive = small, poorly fitted or top-dose-only inhibition, or a rising curve; inactive = flat fitted curve, though single readings scatter; no compound was filed as active;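 further: 0% = full activity with enzyme and -100% = basal without enzyme; dose as in the result columns while the protocol names 77 µM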
Rango release inh – qHTS Assay for Inhibitors of RanGTP induced Rango (Ran-regulated importin-beta cargo) - Importin beta complex dissociation | Snurportin-1 (Homo sapiens) + GTP-binding nuclear protein Ran (Homo sapiens) + Importin … | Biochemical FRET Rango-importin beta, RanGTP-induced dissociation | Potency, µM (highest dose often 46.1 µM), for the others: at the highest dose activity change, negative = inhibition | 0.071% of 340,000 active | AID 540253, 2011; active means falling FRET ratio curve, often poorly fitted, with flat reads before Ran was added; inconclusive means other falling curves, or compound fluorescence or quenching; inactive means flat or rising ratio curve;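 further: potency means the concentration at half of the fitted maximal effect; % of control where 0% means no effect; nearly all actives have a fitted effect of over 45% in size; -100% = wells without RanGTP and RCC1; the record marks most hits as doubtful in a second field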
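Two FRET readings bracket the reaction: one 5 min after compound meets Rango–importin beta, another 45 min after RanGTP-RCC1 (0.6 uM Ran, 0.2 uM RCC1, 2 mM GTP) is added. Only the second defines inhibition.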
miR-21 reporter – qHTS Assay for Modulators of miRNAs and/orActivators of miR-21. 340,000 tested, under 10 active. HeLa miR-21 FLuc reporter, luciferase, 48 h. AID 2288, 2010. Potency, µM (series often up to 38.3 µM), without a hit: at the top dose reporter change, positive = more light; active = well fitted rising curve with a large enough effect; inconclusive = small, poorly fitted or top-dose-only effect; inactive = no such curve, though single readings can be large or run the other way;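 further: % of control where 0% means no effect; miR-21 action dims this reporter so a rising signal means less miR-21 action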
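Compounds were titrated across several concentrations (up to approximately 40 uM) and incubated 48 hours with HeLa miR-21-FLuc reporter cells (miR-21 target sequence downstream of FLuc, endogenous miR-21). Readout was firefly luciferase luminescence after lytic detection reagent.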
Numbers without * were called inactive; ? = inconclusive; . = not tested or not shown; & = joins results of further samples.

Each structure is followed by: Rango complex inh	GLA inh pH 4.5	Rango release inh	miR-21 reporter
> CC(C)(C)c1nc(SCC(=O)Nc2ccc(N3CCOCC3)cc2)c2ccccc2n1
  -8.5%	0	-1%	0%
> COCCNC(=O)c1ccc(CSCc2cccc(Cl)c2)o1
  0.8%	.	7%	-9%
> CCC(C)NC(=O)CN1C(=O)CC(C)(C)S(=O)(=O)c2ccccc21 (stereo unspecified)
  6.1%	-14	-5%	-4%
> Cc1cnc(CN(C)Cc2nc(Cc3cccc(C(F)(F)F)c3)no2)[nH]1
  0.3%	1	1%	-1%
> CCc1cccc(NC(=O)C2CCN(S(=O)(=O)c3ccc4c(c3)CC(C)N4C(C)=O)CC2)c1 (stereo unspecified)
  0.7%	.	12%	15%
> Cc1cc(C)cc(NC(=O)c2cccc(NC(=O)C3C4CC5OC(=O)C3C5C4)c2)c1 (stereo unspecified)
  -4.5%	2	-9%	0%
> CC#C[C@]1(O)CC[C@H]2[C@@H]3CCC4=CC(=O)CCC4=C3[C@@H](c3ccc(N(C)C)cc3)C[C@@]21C
  -0.8%	1	2%	16%
> CC(C)(C)N(Cc1ccccc1)C(=O)CCc1ccccc1
  -3.6%	-3	18%	0%
> Cc1ccc(S(=O)(=O)Nc2cc(S(=O)(=O)N3CCCCC3)ccc2N2CCOCC2)cc1
  -3.1%	-5	-1%	-2%
> CSCC(C)N1CCC(n2nccc2NC(=O)CCc2ccccc2)CC1 (stereo unspecified)
  ?	.	?	-2%
> O/N=C1\CCCc2c1nc(-c1ccccc1F)n2O
  1.8%	-4	36%	-1%
> COc1ccc(Cl)cc1S(=O)(=O)N(C)CC(=O)NCc1ccc2c(c1)OCO2
  -0.9%	.	2%	-4%
> Cc1ccc(S(=O)(=O)N2CCOCC2)cc1NC(=O)c1cc2ccccc2oc1=O
  3.3%	.	0%	.
> COc1ccc([C@H]2CC(=O)C=C(c3cccc(Cl)c3)C2)cc1
  -1.0%	.	-17%	.
> CCOc1ccc(CCNC(=O)C2CCN(S(=O)(=O)N3CCOCC3)CC2)cc1OCC
  ?	1	1%	-1%
> O=C(COc1ccc(F)cc1)N(c1ccccn1)C1CCCCC1
  2.0%	-4	4%	-2%
> Cc1ccc(Cl)cc1NC(=O)Cn1c(C)csc1=O
  -3.2%	.	0%	.
> COc1ccc(CCC(=O)Nc2nccs2)cc1OC
  0.4%	.	8%	1%
> COC(=O)N/N=C(\C)c1ccc(Br)cc1
  -4.7%	0	11%	-35%
> C=C(C)CNC(=S)NNC(=O)CCn1c2ccccc2c2ccccc21
  0.2%	-8	-6%	-4%
> Cn1c(SCc2nc3ccccc3s2)nnc1-c1cccs1
  -5.0%	15	6%	-37%
> Oc1ccc(-c2csc(-c3c[nH]c4ccccc34)n2)c(O)c1
  1.3%	-6	7%	-28%
> COC(=O)CSc1nc2ccc(C)cc2[nH]1
  1.2%	14	13%	-5%
> COc1ccccc1-n1c(SCC(=O)Nc2cccc3ccccc23)nc(O)cc1=O
  0.0%	-11	7%	3%
> Cc1ccc(C(=O)CCC(=O)N(C)CC(=O)Nc2c(Cl)cccc2Cl)cc1
  -1.9%	.	-2%	-3%
> CCn1c(SC(C)C(=O)Nc2nccs2)nnc1-c1ccncc1 (stereo unspecified)
  0.5%	.	4%	0%
> Cc1ccc(S(=O)(=O)Nc2ccc3c(c2)nc(CCN2CCCCC2)n3C)cc1
  -4.3%	-15	15%	13%
> O=C(c1ccccc1)c1nnc(-c2ccccc2F)o1
  -4.2%	1	-8%	-43%
> Cc1cccc(Cl)c1NNC(=O)Nc1c([N+](=O)[O-])c(C)nn1C
  -0.3%	5	15%	3%
> Cc1noc(C)c1S(=O)(=O)Nc1ccc(C(=O)N2CCc3ccccc3C2)cc1
  -0.1%	6	2%	-8%
> CC(O)[C@H]1CNCCN1CC1(c2ccccc2)CC1 (stereo partly specified)
  -2.5%	.	1%	.
> CCOc1cc(Br)c(/C=C2/C(=O)N(C)C(=S)N2CC(=O)OC)cc1OC
  ?	-3	?	5%
> Nc1nc(SCc2ccccc2)c2ncn(C3CCCO3)c2n1 (stereo unspecified)
  7.1%	.	13%	.
> c1ccc(OCc2nnc3sc(-c4cccs4)nn23)cc1
  -3.4%	-3	-15%	-26%
> Cc1ccc(C2=NNC(C(O)C(O)C(O)C(O)CO)S2)cc1 (stereo unspecified)
  0.6%	3	16%	-35%
> CCO[C@@H]1OC(C(=O)N2CCN(Cc3ccc4c(c3)OCO4)CC2)=C[C@H](c2ccc3c(c2)OCO3)[C@H]1CCCO
  -3.3%	-2	-19%	-1%
> COc1ccc(C(OC(=O)c2c(C)noc2C)C(=O)NC2CCCC2)cc1 (stereo unspecified)
  -5.1%	-2	-2%	-4%
> S=c1nc(C2CCCCC2)[nH]c2ccccc12
  -2.9%	5	-10%	-18%
> Cc1cc(C)nc(NC(=O)CSc2nnnn2-c2ccccc2)n1
  0.7%	2	-15%	-19%
> CC(=O)C(=Nc1ccccc1Cl)NNc1ccc(Cl)cc1
  -0.4%	-4	-8%	7%
> NC(=O)C1=C[C@H](c2csc3ccccc23)C[C@H](OCc2ccc(CO)cc2)O1
  -0.8%	-1	6%	-10%
> O=C(CN1CCCC1)NCC12CC3CC(CC(C3)C1)C2
  -0.8%	-7	-1%	-10%
> CC(=O)c1cccc(NC(=O)N2CCCC2C(=O)NC2CCCC2)c1 (stereo unspecified)
  -0.3%	.	20%	2%
> COc1ccc(Cl)cc1N(C(C)C(=O)O)S(C)(=O)=O (stereo unspecified)
  1.1%	3	31%	-2%
> CC(=O)Nc1ccc(-c2cn3ccsc3n2)cc1
  -0.9%	4	3%	-35%
> CC(=O)Nc1cccc(C(=O)OC(C(=O)c2ccc(C)c(C)c2)c2ccccc2)c1 (stereo unspecified)
  -1.3%	-7	-7%	5%
> Cc1ccc(C(=O)NC(=S)N2CCN(c3cc(C)ccc3C)CC2)cc1
  -0.9%	.	7%	-23%
> Cc1nc2cc(CC(=O)O)ccc2o1
  3.7%	1	-13%	0%
> CC1CCc2c(C(=O)NCCCN3CCOCC3)csc2C1 (stereo unspecified)
  2.7%	3	25%	-9%
> CC(C)Cn1cnc2c1c(=O)n(CC(=O)O)c(=O)n2Cc1ccccc1
  -3.2%	.	6%	1%
> Oc1ccc(-c2csc(-c3cccnc3)n2)c(O)c1
  -5.7%	0	3%	-16%
> Cc1c(C(=O)Nc2ccc(OCc3ccccc3)cc2)cccc1[N+](=O)[O-]
  -0.3%	-6	0%	0%
> O=C(NNc1c(F)c(F)cc(F)c1F)c1ccco1
  -2.4%	.	-20%	.
> Cc1cccc2cc(C3CC(c4cccs4)=NN3C(=O)CCC(=O)O)c(Cl)nc12 (stereo unspecified)
  1.7%	4	22%	-1%
> Cc1noc(C)c1Cn1nc(C(=O)O)c2ccccc2c1=O
  -0.7%	10	1%	-5%
> Cc1ccc(C(=O)N/N=C/c2ccc(-c3cccc(C(F)(F)F)c3)o2)cn1
  -1.7%	1	0%	27%
> O=C(Cn1ccc(C(F)(F)F)n1)NNC(=O)c1cccnc1
  3.0%	.	16%	0%
> Brc1cc(-c2ccccc2)nc(-c2ccccc2)n1
  -0.2%	.	18%	.
> Cc1sc2ncn(CC(=O)NCC(=O)N3CCN(c4ccc(F)cc4)CC3)c(=O)c2c1C
  -1.6%	.	-25%	-1%
> O=C(Cn1cnc2c(nnn2Cc2ccccc2F)c1=O)NCc1ccco1
  0.1%	4	7%	4%

Continued.
Each structure is followed by: Rango complex inh	GLA inh pH 4.5	Rango release inh	miR-21 reporter
> CC(=O)N1[C@H](C)C=C[C@]1(Cc1ccccc1)C(=O)O
  -2.8%	1&2	1%	-2%
> COc1ccc(-n2c(-c3cccc(C)c3[N+](=O)[O-])n[nH]c2=S)cc1
  -1.6%	6	-10%	-3%
> Cc1c(NC(=S)N/N=C\c2ccccc2O)c(=O)n(-c2ccccc2)n1C
  ?	8	?	5%
> CCCCNc1ncnc2c1cnn2Cc1ccc(Cl)cc1
  5.1%	.	-4%	22%
> Cc1c(NC(=O)c2cc3ccccc3c(=O)s2)c(=O)n(-c2ccccc2)n1C
  -1.6%	3	23%	-6%
> O=C(CCCC(=O)N(CC(=O)NC1CCCC1)c1ccc(F)c(Cl)c1)Nc1ccccn1
  0.0%	.	-20%	0%
> Cc1cc(C)c2c(N)c(C(=O)NCc3ccco3)sc2n1
  1.9%	4	4%	-40%
> Cc1ccc(C)c(S(=O)(=O)Nc2ccc3scnc3c2)c1
  -0.7%	1	2%	25%
> O=C(c1ccncc1)N1N=C(C2CCCCC2)CC1(O)C(F)(F)F (stereo unspecified)
  -4.8%	4	-15%	4%
> COc1ccc(CNC(=O)C(c2ccc(C)cc2)N(Cc2cccs2)C(=O)c2ccc3c(c2)OCCO3)cc1 (stereo unspecified)
  6.4%	-6	9%	23%
> Cc1cc(OC(F)F)ccc1NC(=O)Nc1ccc2c(c1)OCO2
  6.7%	.	1%	-9%
> CCN(CC)S(=O)(=O)c1cccc(NC(=O)c2cccc(S(=O)(=O)N3CCCC3)c2)c1
  -0.7%	.	0%	.
> CCc1nnc(NC(=O)CCC(=O)Nc2ccc(OC)cc2OC)s1
  -0.3%	.	7%	1%
> CSc1nsc(SCC(=O)N2CCc3ccccc32)n1
  -3.1%	-21	14%	-1%
> COc1nc2c(C)cccc2cc1-c1noc(-c2ccco2)n1
  -4.3%	-2	14%	-7%
> CCCCc1nc2n[nH]c(N)c2c2c1CSC(C)(C)C2
  3.4%	9	-12%	-15%
> CCn1nnc(NC(=O)c2ccc(C(C)(C)C)cc2)n1
  2.0%	6	-5%	-19%
> Cc1c(C(=O)N2CCOCC2)c(S(=O)(=O)Nc2cccc(F)c2)c(C)n1C
  -3.0%	.	1%	-3%
> CC1=Nc2ccccc2/C1=C\c1nc(-c2ccc(F)cc2)oc1O
  ?	-4	?	4%
> COc1ccc(NC(=O)CNC(=O)c2ccco2)cc1
  0.7%	.	-14%	-33%
> CC1CCN(C(=O)C(=O)Nc2sc3c(c2C(N)=O)CC(C)(C)OC3)CC1
  2.2%	.	0%	-2%
> CC(NC(=O)COC(=O)Cn1cc(C(F)(F)F)ccc1=O)c1ccccc1 (stereo unspecified)
  -3.8%	.	-10%	.
> Nc1nc(SCCO)[nH]c(=O)c1NC(=O)c1ccccc1F
  2.1%	3	13%	0%
> O=C(O)CCC(=O)Nc1ccc(Cc2ccc(NC(=O)CCC(=O)O)cc2)cc1
  0.0%	6	5%	-2%
> CCn1c(=O)c(-c2cc(=O)[nH][nH]2)c(O)c2ccccc21
  3.2%	2	-8%	1%
> O=C(O)C1C2C=CC(O2)C1C(=O)NCCCn1ccnc1 (stereo unspecified)
  .	?	.	-2%
> CS(=O)(=O)N(CCc1ccccc1)CC(=O)Nc1ccc(Br)cc1F
  -0.5%	.	10%	4%

Sorted by value in Rango release inh (largest number first): 3 from the list above
Each structure is followed by: Rango complex inh	GLA inh pH 4.5	Rango release inh	miR-21 reporter
> CS(=O)(=O)N(CCc1ccccc1)CC(=O)Nc1ccc(Br)cc1F
  -0.5%	.	10%	4%
> CC1CCN(C(=O)C(=O)Nc2sc3c(c2C(N)=O)CC(C)(C)OC3)CC1
  2.2%	.	0%	-2%
> CCn1c(=O)c(-c2cc(=O)[nH][nH]2)c(O)c2ccccc21
  3.2%	2	-8%	1%

These rows are one share of the data; the hit share may differ from the screen's.
